PKD1 kinase inh: PKD1 (human) kinase inhibition | inhibition, %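 (about 10 µM by stock and volumes)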 | AID 797 | PKD1 kinase fluorescence polarization assay | hit rate 0.056% among 200,000;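 active = inhibition of 50% or more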;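 note: controls were vehicle for no effect and a reference inhibitor for full effect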
GALR2 ag: GALR2 (human) receptor agonism | O43603 | GALR2-expressing cells, agonist activation read-out | activation, %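 (tested at 5 µM)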 | hit rate 0.48% among 140,000 | AID 803;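 active = above mean plus 3 SD of all compounds, about 5% in these data, not always enough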;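 note: 0% = vehicle buffer wells and 100% = reference agonist at full effect; tested in CHO reporter cells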
Target sequence (O43603 whole entry, looked up): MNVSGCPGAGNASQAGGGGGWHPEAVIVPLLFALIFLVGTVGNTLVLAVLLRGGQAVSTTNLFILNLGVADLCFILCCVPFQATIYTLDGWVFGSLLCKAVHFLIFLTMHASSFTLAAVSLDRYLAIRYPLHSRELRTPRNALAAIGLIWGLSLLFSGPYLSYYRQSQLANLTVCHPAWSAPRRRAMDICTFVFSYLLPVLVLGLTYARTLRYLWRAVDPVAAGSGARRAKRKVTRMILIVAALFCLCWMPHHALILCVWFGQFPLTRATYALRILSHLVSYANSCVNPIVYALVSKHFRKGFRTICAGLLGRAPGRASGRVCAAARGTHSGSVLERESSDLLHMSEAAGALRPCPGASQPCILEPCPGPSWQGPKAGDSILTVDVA
RGS16-Gao: modulates binding between human RGS16 and Galphao | AID 1441 | binding response (% of control), % at 10 µM | bead-based flow cytometry RGS16-Galphao binding, fluorescence; actives lie on both sides | hit rate 0.38% among 220,000 | O15492+P09471;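 active = below 25% or above 175%, edge rows of some plates excepted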;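 note: Galphao activated by GDP with aluminum fluoride before binding; 100% = wells without compound and 0% = beads without RGS; some results beyond the cut were filed as inactive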
Target sequence (O15492 whole entry, looked up): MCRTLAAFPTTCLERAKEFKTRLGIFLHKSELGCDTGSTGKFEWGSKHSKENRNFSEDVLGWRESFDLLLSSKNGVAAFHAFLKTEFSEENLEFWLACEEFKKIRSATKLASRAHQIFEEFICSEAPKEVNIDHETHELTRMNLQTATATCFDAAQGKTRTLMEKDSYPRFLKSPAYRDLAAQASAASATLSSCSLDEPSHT
Target sequence (P09471 whole entry, looked up): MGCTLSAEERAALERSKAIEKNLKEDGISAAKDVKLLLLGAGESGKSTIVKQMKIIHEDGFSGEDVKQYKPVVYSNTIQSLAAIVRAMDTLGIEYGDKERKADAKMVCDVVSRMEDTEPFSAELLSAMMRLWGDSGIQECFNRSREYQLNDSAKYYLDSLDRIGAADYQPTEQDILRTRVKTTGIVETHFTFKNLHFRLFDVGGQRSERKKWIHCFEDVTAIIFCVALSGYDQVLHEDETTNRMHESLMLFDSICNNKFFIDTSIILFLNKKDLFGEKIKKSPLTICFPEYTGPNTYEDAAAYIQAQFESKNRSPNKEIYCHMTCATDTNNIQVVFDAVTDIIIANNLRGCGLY
HSV augment: increases HSV replication in cells | HSV replication augmentation in cells, fold increase | maximum fold increase | hit rate 0.005% among 220,000 | AID 1956;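 active = peak rise of 1.5-fold or more in the series; inconclusive = self-fluorescent or not available for retest; tested in PC3 cells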;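 note: first round at 10 µM; read as green reporter fluorescence; hits show the peak of a series up to 25 µM; 1 = signal of infected wells without compound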
INS promoter inh: TRM-6 insulin promoter activity inhibition; TRM-6 cells (human fetal islet line), insulin promoter-eGFP reporter, imaging; reporter expression induced with tamoxifen; inhibition, % at 2 µM; hit rate 0.9% among 130,000; AID 1273;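 active = inhibition above the mean plus 3 SD, with well images judged a real hit on visual review, cut at about 60% in these data, passing the limit was not always enough; inconclusive = inhibition over the cutoff but images rejected on review; inactive = inhibition not above the cutoff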
INS promoter inh cell count: recorded beside INS promoter inh, whose call it bears; normalized cell count, %; measured here: cell count, toxicity; reference of the scale not given here;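 cells exposed to compound for 48 h; stained nuclei by imaging scaled within each plate; lower means fewer cells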
HSV augment primary fold: second read-out of HSV augment, no call of its own (marks repeat the call); fold increase; compound at 10 µM; measured here: primary screen fold increase 10 uM; tested in PC3 cells;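 GFP signal in the first replicate; 1 = infected wells without compound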
Active calls of the source: *.

`O=C(NC(=S)Nc1ccccc1N1CCCCC1)c1ccc(-c2cccc([N+](=O)[O-])c2)o1` gave PKD1 kinase inh 12.5, GALR2 ag -0.6, RGS16-Gao 101.1, HSV augment inactive, INS promoter inh 16.7, INS promoter inh cell count 112.6 and HSV augment primary fold 0.94.
`CC(=O)Nc1ccc(S(=O)(=O)c2c(N)n(CCN3CCOCC3)c3nc4ccccc4nc23)cc1` gave PKD1 kinase inh 2.4, GALR2 ag -0.3, RGS16-Gao 94.0, HSV augment inactive, INS promoter inh 3.1, INS promoter inh cell count 72.3 and HSV augment primary fold 0.97.
O=C(CSCC(=O)NC1CC1)Nc1ccc2ccccc2c1 was read as PKD1 kinase inh 7.7, GALR2 ag -0.4, RGS16-Gao 91.7, HSV augment inactive, INS promoter inh 6.2, INS promoter inh cell count 101.4 and HSV augment primary fold 0.99.
Screening COc1ccc(CCc2nnc(CCC(=O)NCc3cc(C(C)C)no3)o2)cc1 returned PKD1 kinase inh 5.0, RGS16-Gao 70.7, HSV augment inactive and HSV augment primary fold 1.03.
For COc1ccc(OC)c(Nc2nnc(C)c(=O)[nH]2)c1 the results were PKD1 kinase inh -8.3, RGS16-Gao 100.8, HSV augment inactive and HSV augment primary fold 0.91.
`CCOC(=O)c1cc2sccc2n1CC(=O)OC(C)C` gave PKD1 kinase inh -5.4, GALR2 ag -2.3, RGS16-Gao 95.5, HSV augment inactive and HSV augment primary fold 1.13.
Screening CC(C)(C)NC(=O)C(OC(=O)c1cccs1)c1ccc(C#N)cc1 (stereo unspecified) returned PKD1 kinase inh 4.8, RGS16-Gao 110.5, HSV augment inactive, INS promoter inh 2.6, INS promoter inh cell count 105.0 and HSV augment primary fold 0.94.
Screening CCOc1ccc(NC(=O)N2CCN(Cc3ccc4c(c3)OCO4)CC2)cc1 returned PKD1 kinase inh -0.9, RGS16-Gao 102.7, HSV augment inactive and HSV augment primary fold 1.
CC(=O)c1ccccc1NC(=O)COC(=O)c1ccc2c(c1)nc(C)n2-c1ccccc1 was read as PKD1 kinase inh -14.5, GALR2 ag 1.8, RGS16-Gao 110.4, HSV augment inactive, INS promoter inh -31.0, INS promoter inh cell count 109.7 and HSV augment primary fold 0.96.
For CCOC(=O)c1cnn(-c2nc(SC)nc3sc4c(c23)CCC4)c1N the results were PKD1 kinase inh -9.9, GALR2 ag -3.4, RGS16-Gao 90.0, HSV augment inactive, INS promoter inh -25.0, INS promoter inh cell count 85.7 and HSV augment primary fold 0.93.
For Cn1ncc2c(Nc3ccccc3Br)ncnc21 the results were PKD1 kinase inh -6.5, GALR2 ag -0.8, RGS16-Gao 109.4, HSV augment inactive and HSV augment primary fold 0.98.
`O=C1C=CCC(/C=C/c2ccccc2)O1` (stereo unspecified) gave PKD1 kinase inh -5.1, GALR2 ag -0.9, RGS16-Gao 102.5, HSV augment inactive, INS promoter inh 23.8, INS promoter inh cell count 94.7 and HSV augment primary fold 0.49.
Screening Cc1noc(C)c1CS(=O)(=O)Cc1ccc(Cl)cc1 returned PKD1 kinase inh -8.8, RGS16-Gao 101.8, HSV augment inactive and HSV augment primary fold 1.02.
`CN(c1ncc(C(F)(F)F)cc1Cl)n1cc(C(=O)O)c2ccccc2c1=O` gave PKD1 kinase inh -5.1, GALR2 ag -1.4, RGS16-Gao 103.3, HSV augment inactive, INS promoter inh 13.3, INS promoter inh cell count 109.9 and HSV augment primary fold 1.03.
Screening CCOC(=O)c1c(-c2cccs2)csc1N returned PKD1 kinase inh 0.1, RGS16-Gao 124.3, HSV augment inactive, INS promoter inh 21.4, INS promoter inh cell count 86.4 and HSV augment primary fold 1.02.
`CN(C)S(=O)(=O)N1CCN(CC(=O)Nc2cc(Cl)ccc2Cl)CC1` gave PKD1 kinase inh -11.7, GALR2 ag -1.9, RGS16-Gao 95.6, HSV augment inactive, INS promoter inh -23.5, INS promoter inh cell count 51.4 and HSV augment primary fold 0.81.
`N#Cc1c(Oc2ccc3ccccc3c2)sc(C(=O)c2ccccc2)c1N` gave PKD1 kinase inh -9.0, GALR2 ag -0.9, RGS16-Gao 102.8, HSV augment inactive, INS promoter inh 55.9, INS promoter inh cell count 102.6 and HSV augment primary fold 0.71.
CNC(=S)N(Cc1ccco1)Cc1cc2cc(OC)c(OC)cc2[nH]c1=O was read as PKD1 kinase inh -1.2, RGS16-Gao 101.8, HSV augment inactive and HSV augment primary fold 0.93.
CC(Nc1cccc2ccccc12)C(=O)N/N=C/c1ccccn1 (stereo unspecified) was read as PKD1 kinase inh -0.6, GALR2 ag -2.8, RGS16-Gao 100.7, HSV augment inactive, INS promoter inh -36.7, INS promoter inh cell count 42.9 and HSV augment primary fold 1.28.
`O=C(O)c1[nH]nc2c1COc1ccccc1-2` gave PKD1 kinase inh -7.5, GALR2 ag -1.5, RGS16-Gao 91.6, HSV augment inactive, INS promoter inh -77.8, INS promoter inh cell count 39.3 and HSV augment primary fold 1.04.
For CC(=O)C1=C(O)C(=O)N(CO)C1c1ccccc1F (stereo unspecified) the results were PKD1 kinase inh -19.2, GALR2 ag 0.5, RGS16-Gao 103.7, HSV augment inactive, INS promoter inh -40.4, INS promoter inh cell count 93.8 and HSV augment primary fold 0.78.
For N#CCCN(CCC#N)S(=O)(=O)c1ccc(C(=O)Nc2nc(-c3ccccc3)c(C(=O)c3ccccc3)s2)cc1 the results were RGS16-Gao 104.7, HSV augment inactive and HSV augment primary fold 0.99.
`CC(Oc1ccc(Br)cc1)C(=O)Nc1ccncc1` (stereo unspecified) gave PKD1 kinase inh -11.8, RGS16-Gao 103.1, HSV augment inactive, INS promoter inh -105.9, INS promoter inh cell count 54.7 and HSV augment primary fold 1.
For COc1ccc2nc(/C=N/NC(=O)[C@H](C)NC(=O)OC(C)(C)C)ccc2c1 the results were PKD1 kinase inh -8.2, GALR2 ag -0.6, RGS16-Gao 73.2, HSV augment inactive, INS promoter inh 18.5, INS promoter inh cell count 128.9 and HSV augment primary fold 0.99.
`CC(C)Oc1ccccc1OCCCOc1cccc2cccnc12` gave PKD1 kinase inh -4.1, RGS16-Gao 100.3, HSV augment inactive, INS promoter inh -10.0, INS promoter inh cell count 107.6 and HSV augment primary fold 0.81.
For O=C(Cc1ccc(Br)cc1)Nc1nc2ccccc2[nH]1 the results were RGS16-Gao 96.0, HSV augment inactive and HSV augment primary fold 0.74.
For O/N=C/c1cc(Br)ccc1OCc1ccccc1F the results were PKD1 kinase inh -2.2, GALR2 ag 8.5, HSV augment inactive, INS promoter inh -92.6, INS promoter inh cell count 62.0 and HSV augment primary fold 1.
`CC(C(=O)NCc1ccccn1)N1C(=O)c2ccccc2C1=O` (stereo unspecified) gave PKD1 kinase inh -3.4, GALR2 ag -2.0, RGS16-Gao 91.3, HSV augment inactive and HSV augment primary fold 0.87.
`O=C(Cc1c(F)c(F)c(F)c(F)c1F)OC12CC3CC(C1)C(=O)C(C3)C2` gave PKD1 kinase inh -2.7, GALR2 ag -1.7, RGS16-Gao 104.0, HSV augment inactive, INS promoter inh 21.9, INS promoter inh cell count 72.5 and HSV augment primary fold 1.
Screening CCOC(=O)/C(C#N)=C/C1=C(N2CCCC2)CC(C)(C)OC1 returned PKD1 kinase inh -6.0, GALR2 ag -0.4, RGS16-Gao 99.2, HSV augment inactive, INS promoter inh -51.7, INS promoter inh cell count 150.0 and HSV augment primary fold 0.97.
`CCN(c1ccccc1)S(=O)(=O)c1ccc(C(=O)Nc2nnc(COC)o2)cc1` gave PKD1 kinase inh -7.3, GALR2 ag -5.7, RGS16-Gao 123.4, HSV augment inactive, INS promoter inh 14.3, INS promoter inh cell count 77.2 and HSV augment primary fold 0.94.
For COc1ccc(-c2nnc(SCC(=O)Nc3sc4c(c3C#N)CCCC4)n2-c2ccccc2)cc1 the results were PKD1 kinase inh 0.6, GALR2 ag -1.1, RGS16-Gao 112.1, HSV augment inactive, INS promoter inh -230.8, INS promoter inh cell count 96.0 and HSV augment primary fold 0.77.
Screening CC(=O)Nc1ccc(N(C(=O)Cn2nnc3ccccc32)C(C(=O)NC2CCCC2)c2ccc(O)c(O)c2)cc1 (stereo unspecified) returned PKD1 kinase inh 0.0, RGS16-Gao 101.8, HSV augment inactive, INS promoter inh 27.8, INS promoter inh cell count 96.4 and HSV augment primary fold 1.
`Cc1ccccc1-n1c(-c2ccc(=O)[nH]n2)n[nH]c1=S` gave PKD1 kinase inh -2.1, RGS16-Gao 121.5, HSV augment inactive and HSV augment primary fold 1.05.
For COc1ccc(C(=O)NNC(=O)CN2CCC(n3nnc4cc(F)ccc43)CC2)cc1 the results were PKD1 kinase inh -12.5, GALR2 ag -1.6, RGS16-Gao 114.5, HSV augment inactive, INS promoter inh -10.8, INS promoter inh cell count 42.9 and HSV augment primary fold 0.95.
CCCn1c(C(O)c2ccc(OC)cc2)nc2ccccc21 (stereo unspecified) was read as PKD1 kinase inh -11.3, GALR2 ag -3.5, RGS16-Gao 102.0, HSV augment inactive, INS promoter inh 46.7, INS promoter inh cell count 131.8 and HSV augment primary fold 0.92.

3 compounds drawn at random from those above:
For CCOC(=O)c1cnn(-c2nc(SC)nc3sc4c(c23)CCC4)c1N the results were PKD1 kinase inh -9.9, GALR2 ag -3.4, RGS16-Gao 90.0, HSV augment inactive, INS promoter inh -25.0, INS promoter inh cell count 85.7 and HSV augment primary fold 0.93.
`Cc1ccccc1-n1c(-c2ccc(=O)[nH]n2)n[nH]c1=S` gave PKD1 kinase inh -2.1, RGS16-Gao 121.5, HSV augment inactive and HSV augment primary fold 1.05.
For COc1ccc2nc(/C=N/NC(=O)[C@H](C)NC(=O)OC(C)(C)C)ccc2c1 the results were PKD1 kinase inh -8.2, GALR2 ag -0.6, RGS16-Gao 73.2, HSV augment inactive, INS promoter inh 18.5, INS promoter inh cell count 128.9 and HSV augment primary fold 0.99.

Back to the main list; the 2 compounds before the break are reprinted first.
For COc1ccc(C(=O)NNC(=O)CN2CCC(n3nnc4cc(F)ccc43)CC2)cc1 the results were PKD1 kinase inh -12.5, GALR2 ag -1.6, RGS16-Gao 114.5, HSV augment inactive, INS promoter inh -10.8, INS promoter inh cell count 42.9 and HSV augment primary fold 0.95.
CCCn1c(C(O)c2ccc(OC)cc2)nc2ccccc21 (stereo unspecified) was read as PKD1 kinase inh -11.3, GALR2 ag -3.5, RGS16-Gao 102.0, HSV augment inactive, INS promoter inh 46.7, INS promoter inh cell count 131.8 and HSV augment primary fold 0.92.
Cc1ccc(NC2OC(CO)C(O)C2O)cc1[N+](=O)[O-] (stereo unspecified) was read as PKD1 kinase inh 3.6, GALR2 ag -1.0, RGS16-Gao 30.2, HSV augment inactive, INS promoter inh 40.0, INS promoter inh cell count 65.1 and HSV augment primary fold 0.97.
For CCOC(=O)c1ccccc1OCc1cc(/C=N/n2cnnc2)ccc1OC the results were PKD1 kinase inh -9.8, GALR2 ag -1.3, RGS16-Gao 103.3, HSV augment inactive, INS promoter inh -8.1, INS promoter inh cell count 44.7 and HSV augment primary fold 0.69.
Cc1c(C=O)c(=O)n(-c2ccccc2)n1-c1ccccc1 was read as PKD1 kinase inh 1.3, GALR2 ag -2.0, RGS16-Gao 101.7, HSV augment inactive, INS promoter inh 63.3, INS promoter inh cell count 49.0 and HSV augment primary fold 0.97.
O=C(NCc1ccccn1)Nc1ccccc1 was read as PKD1 kinase inh -3.7, RGS16-Gao 100.2, HSV augment inactive, INS promoter inh 35.7, INS promoter inh cell count 104.4 and HSV augment primary fold 0.83.
O=C(Nc1cccc(F)c1)c1cc(S(=O)(=O)N2CCOCC2)cs1 was read as PKD1 kinase inh -4.4, RGS16-Gao 93.2, HSV augment inactive and HSV augment primary fold 1.
COc1ccc(S(=O)(=O)c2c(N)n(Cc3ccco3)c3nc4ccccc4nc23)cc1 was read as PKD1 kinase inh 1.7, GALR2 ag 0.3, RGS16-Gao 94.5, HSV augment inconclusive, INS promoter inh -9.1 and INS promoter inh cell count 113.9.
For Cc1sc2nc(CN(Cc3ccccc3)C(=O)NC3CCCCC3)[nH]c(=O)c2c1C the results were PKD1 kinase inh -8.8, GALR2 ag -1.4, HSV augment inactive, INS promoter inh -173.3, INS promoter inh cell count 160.3 and HSV augment primary fold 0.87.
CN(Cc1ccccc1)c1nc(N)c([N+](=O)[O-])c(Nc2cccc(F)c2)n1 was read as PKD1 kinase inh 0.5, GALR2 ag -4.2, RGS16-Gao 108.3, HSV augment inactive, INS promoter inh 28.1, INS promoter inh cell count 125.5 and HSV augment primary fold 0.8.
Screening Cc1cccc(NC(=O)COC(=O)CNC(=O)C2CCCCC2)c1 returned PKD1 kinase inh -4.8, GALR2 ag -3.3, RGS16-Gao 80.9, HSV augment inactive, INS promoter inh 36.7, INS promoter inh cell count 245.1 and HSV augment primary fold 0.95.
`Cc1ccc(N(CC(=O)N/N=C/c2cc(C)n(-c3ccccc3)c2C)S(C)(=O)=O)c(C)c1` gave PKD1 kinase inh -5.1, GALR2 ag -1.4, RGS16-Gao 101.1, HSV augment inactive, INS promoter inh -26.7, INS promoter inh cell count 113.4 and HSV augment primary fold 0.85.
